Polio RdRp inh: poliovirus RNA polymerase inhibition; 150,000 compounds, 0.66% hits; poliovirus polymerase elongation, fluorescence polarization; hits give low values; % elongation, % (compound at 16.7 µg/mL); P03300; AID 588519; in the data active = % elongation below about 90%; note: some results filed as inactive read as strong as hits
Target sequence (P03300 1749-2209 limits assumed): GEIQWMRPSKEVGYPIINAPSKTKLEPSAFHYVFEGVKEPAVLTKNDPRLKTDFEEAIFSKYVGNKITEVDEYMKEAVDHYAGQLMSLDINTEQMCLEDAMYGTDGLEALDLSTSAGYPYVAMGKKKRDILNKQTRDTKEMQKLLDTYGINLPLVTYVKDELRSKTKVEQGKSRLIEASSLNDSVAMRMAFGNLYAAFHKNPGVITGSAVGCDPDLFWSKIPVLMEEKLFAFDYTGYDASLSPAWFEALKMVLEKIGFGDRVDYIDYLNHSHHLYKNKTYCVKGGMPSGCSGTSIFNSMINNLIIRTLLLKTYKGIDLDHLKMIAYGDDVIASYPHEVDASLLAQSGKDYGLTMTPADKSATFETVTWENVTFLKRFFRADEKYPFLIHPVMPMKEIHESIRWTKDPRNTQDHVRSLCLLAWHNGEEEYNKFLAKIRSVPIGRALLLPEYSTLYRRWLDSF
Polio RdRp inh intensity: also measured in Polio RdRp inh; calls as there; % elongation; measured here: total intensity read-out; formula for this scale not given here;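 total fluorescence in place of polarization; lower means less elongation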
Active calls of the source: *.

SMILES | Polio RdRp inh | Polio RdRp inh intensity
Cc1cccc(N(C)C(=O)CS(=O)(=O)c2cccc3nsnc23)c1 | 111.0 | 110.0
CCOC(=O)Cn1c(=O)n(CC2CCCO2)c2nc(-c3ccc(OCC)cc3)nc(C(N)=O)c21 (stereo not given) | 111.0 | 117.0
Cc1noc(NS(=O)(=O)c2ccc(NC(=O)COc3ccccc3Br)cc2)c1C | 108.0 | 112.0
CC(=O)N1CCCc2cc(S(=O)(=O)N3CCC(N(C)C(C)C)CC3)ccc21 | 111.0 | 95.0
CCOc1ccc(NC(=O)CN(C)S(=O)(=O)c2cnc[nH]2)cc1 | 109.0 | 111.0
Cc1ccc(CNC(=O)c2cc3sc(Cl)cc3n2C)cc1 | 116.0 | 117.0
COc1ccc2c(c1)c1c(c(=O)n(-c3cc(Cl)ccc3C)c(=O)n1Cc1ccc(F)cc1)n2C | 100.0 | 95.0
CCOC(=O)c1cc(-c2ccc(F)cc2)n(CCC(=O)NC2CCCCC2)c1C | 107.0 | 111.0
CCCC12CN3CC(CCC)(CN(C1)C3c1c(C)[nH]c(=O)[nH]c1=O)C2=O (stereo not given) | 112.0 | 105.0
CCCC(=O)Nc1cc(-c2nc3cccnc3s2)ccc1C | 112.0 | 108.0
COC(=O)c1ccc(Cn2c(SCC(=O)N(C)c3ccccc3)nc3ccccc32)cc1 | 106.0 | 113.0
COc1ccc(OC)c(CNC(=O)c2ccc(-c3nc(CSc4ccccc4)c(C)o3)cc2)c1 | 101.0 | 95.0

A draw from above in order of heavy-atom count, smallest number first:
SMILES | Polio RdRp inh | Polio RdRp inh intensity
CCCC(=O)Nc1cc(-c2nc3cccnc3s2)ccc1C | 112.0 | 108.0
CCOc1ccc(NC(=O)CN(C)S(=O)(=O)c2cnc[nH]2)cc1 | 109.0 | 111.0
Cc1cccc(N(C)C(=O)CS(=O)(=O)c2cccc3nsnc23)c1 | 111.0 | 110.0
CC(=O)N1CCCc2cc(S(=O)(=O)N3CCC(N(C)C(C)C)CC3)ccc21 | 111.0 | 95.0
COC(=O)c1ccc(Cn2c(SCC(=O)N(C)c3ccccc3)nc3ccccc32)cc1 | 106.0 | 113.0
COc1ccc(OC)c(CNC(=O)c2ccc(-c3nc(CSc4ccccc4)c(C)o3)cc2)c1 | 101.0 | 95.0

More records.
SMILES | Polio RdRp inh | Polio RdRp inh intensity
O=C(Nc1cccc(Cl)c1)c1cc(S(=O)(=O)N2CCCc3ccccc32)ccc1F | 109.0 | 103.0
COc1ccc(-c2cc(-c3nc(-c4cc(OC)c(OC)c(OC)c4)no3)[nH]n2)c(OC)c1 | 110.0 | 113.0
O=S(=O)(c1ccc(-c2cnc(C3CC3)o2)cc1)N1CCN(c2ccccc2)CC1 | 103.0 | 106.0
O=C(NCc1ccco1)c1ccc2c(c1)N(Cc1ccc(Cl)cc1)C(=O)c1ccccc1S2=O (stereo not given) | 110.0 | 108.0
O=C(CCS(=O)(=O)c1cccc2nonc12)Nc1c(F)cccc1F | 106.0 | 107.0
CCOc1ccc(NC(=O)N2CCC(CN3CCc4ccccc4C3)CC2)cc1 | 111.0 | 111.0
COc1ccc(S(=O)(=O)Nc2ccc3oc4c(c3c2)C(=O)CC(C)(C)C4)cc1 | 100.0 | 104.0
Cc1ccc(Cl)cc1N1CCN(C(=O)C2CCCN(Cc3nc(-c4cccc(Cl)c4)oc3C)C2)CC1 (stereo not given) | 107.0 | 106.0
COc1ccc(S(=O)(=O)Nc2ccc(-c3ccc(N4CCCC4)nn3)cc2)cc1F | 102.0 | 112.0
O=C(NCCCO)C(=O)Nc1c2c(nn1-c1ccc(F)cc1)CSC2 | 106.0 | 100.0
O=C(NCc1ccccc1)c1cnc(N2CCCCC2)c2ccccc12 | 102.0 | 100.0
Cc1ccc(NC(=O)C2CCCN2S(=O)(=O)c2ccc3c(c2)n(C)c(=O)c(=O)n3C)cc1C (stereo not given) | 100.0 | 97.0
CCOC(=O)c1c(C)c(-c2ccccc2)n(CC(=O)Nc2cccc(C)c2C)c1C | 102.0 | 107.0
COc1ccc(OC)c(NC(=O)N(C)CCc2c(C)nn(C)c2C)c1 | 110.0 | 112.0
Cc1ccc2c(=O)cc(CSc3ccccc3)[nH]c2c1C | 104.0 | 110.0
CCn1cc(C(=O)N2CCN(c3cc(Cl)ccc3C)CC2)c2cc(OC)c(OC)cc2c1=O | 107.0 | 109.0
Cc1nc(-c2ccc(S(=O)(=O)NCc3ccc(F)cc3)cc2)co1 | 107.0 | 113.0
O=C(CN1CCN(Cc2ccc(F)cc2)C1=O)NCc1ccccc1Cl | 110.0 | 110.0
CCOCCCNC(=O)c1c[nH]c2ccc(S(=O)(=O)N(C)c3ccc(Cl)cc3F)cc2c1=O | 108.0 | 93.0
CCOC(=O)c1c(S(=O)(=O)N2CCC(C(=O)Nc3cccc(C)n3)CC2)c(C)n(C)c1C | 108.0 | 113.0
Cc1ccc(NC(=O)c2sc3nc(-c4cccs4)ccc3c2N)cc1F | 118.0 | 181.0
COc1cc(-c2nc3n(n2)C(c2ccc(F)cc2)C(C(N)=O)=C(C)N3)cc(OC)c1OC (stereo not given) | 107.0 | 108.0
Cc1ccc(S(=O)(=O)N2CCN(Cc3cc(=O)n4nc(-c5ccccc5Cl)sc4n3)CC2)cc1 | 106.0 | 110.0
COc1cc(Cl)c(C)cc1NC(=O)Cn1cc(S(=O)(=O)N2CCC(C)CC2)c2ccccc2c1=O | 103.0 | 106.0
Cc1ccc(CNC(=O)Cn2c(=O)ccc3cc(S(=O)(=O)N4CCCC4)ccc32)cc1 | 97.0 | 99.0
COc1ccc(CNC(=O)C2CCN(c3nc4ccccc4[nH]3)CC2)cc1OC | 111.0 | 114.0
COc1cc(C)ccc1OCCSc1nc(-c2cccc(C)c2)nc2cc(=O)[nH]n12 | 104.0 | 109.0
CN(C)c1ccc(CNC(=O)CCCn2ccc3cc(S(=O)(=O)N4CCCC4)ccc32)cc1 | 112.0 | 95.0
CCC(C)NC(=O)CCc1c(C)nc2c(c(C)nn2-c2ccc(C)cc2)c1C (stereo not given) | 105.0 | 108.0
CCc1ccc(OCC(=O)N(Cc2ccco2)Cc2ccco2)cc1 | 111.0 | 110.0
O=C(CC1N=C2c3ccccc3N=C(SCc3ccccc3F)N2C1=O)NCCc1ccccc1 (stereo not given) | 110.0 | 112.0
Cc1ccc(OCc2nc(-c3ccc(C(=O)NCCc4ccc(Cl)cc4)cc3)oc2C)cc1 | 109.0 | 112.0
Cc1cccc(N2C(=O)CSC23C(=O)N(Cc2cccc(C(F)(F)F)c2)c2ccccc23)c1 (stereo not given) | 109.0 | 103.0
CCn1cc(S(=O)(=O)c2ccccc2)c(=O)c2cc(F)c(N3CCN(c4ccccc4)CC3)cc21 | 105.0 | 104.0
COc1ccc(CNC(=O)c2ccc(Sc3ccc(Cl)cc3)c(NC(C)=O)c2)c(OC)c1 | 103.0 | 105.0
CCc1ccc(NC(=O)C2CCCN2S(=O)(=O)c2cccc3nsnc23)cc1 (stereo not given) | 107.0 | 105.0
COc1ccc(-n2c(C)nnc2SCc2nc(-c3ccc(OC)c(OC)c3)no2)cc1 | 114.0 | 104.0
CSc1ccc(CN2CCN(C(=O)COc3ccc(C)cc3)CC2)cc1 | 99.0 | 95.0
Cc1ccc(-n2nc3c(=O)n(CCCC(=O)NCc4ccccc4F)nc(C)c3c2C)cc1 | 108.0 | 115.0
Cc1ccc(-c2noc(CN(C3CCCCC3)S(=O)(=O)c3ccc(C)cc3)n2)cc1 | 107.0 | 105.0
COc1ccc(NC(=O)c2sc3nc[nH]c(=O)c3c2C)cc1 | 104.0 | 110.0
Cc1nn(C)c2c1c(-c1ccccc1)cc(=O)n2CC(=O)NC(C)(C)C | 104.0 | 96.0
CCOC(=O)c1cc(S(=O)(=O)NCc2ccc(F)cc2)[nH]n1 | 102.0 | 79.0
CCc1cccc(NC(=O)c2ccc(CNS(=O)(=O)c3ccc4c(c3)C(C)(C)C(=O)N4C)cc2)c1 | 116.0 | 111.0
CC1=C(C(=O)OC2CCCC2)C(c2c(F)cccc2Cl)CC(=O)N1 (stereo not given) | 107.0 | 108.0
Cc1c(C(=O)Nc2c(F)cccc2F)sc2ncn(Cc3ccccc3F)c(=O)c12 | 97.0 | 96.0
CC(CNC(=O)C1CCN(S(=O)(=O)c2ccc3c(ccn3C)c2)CC1)c1ccccc1 (stereo not given) | 106.0 | 109.0
CCCCN(CC)C(=O)C1CCC(CNS(=O)(=O)c2cccc3nsnc23)CC1 (stereo not given) | 102.0 | 104.0

Five consecutive records from above, quoted:
SMILES | Polio RdRp inh | Polio RdRp inh intensity
COc1ccc(-n2c(C)nnc2SCc2nc(-c3ccc(OC)c(OC)c3)no2)cc1 | 114.0 | 104.0
CSc1ccc(CN2CCN(C(=O)COc3ccc(C)cc3)CC2)cc1 | 99.0 | 95.0
Cc1ccc(-n2nc3c(=O)n(CCCC(=O)NCc4ccccc4F)nc(C)c3c2C)cc1 | 108.0 | 115.0
Cc1ccc(-c2noc(CN(C3CCCCC3)S(=O)(=O)c3ccc(C)cc3)n2)cc1 | 107.0 | 105.0
COc1ccc(NC(=O)c2sc3nc[nH]c(=O)c3c2C)cc1 | 104.0 | 110.0

(cont.)
SMILES | Polio RdRp inh | Polio RdRp inh intensity
CCC(C(=O)Nc1cc(OC)ccc1OC)n1nc(-c2ccccc2)c2c(c1=O)CCCC2 (stereo not given) | 103.0 | 104.0
O=C(NC1(C(F)(F)F)C(=O)Nc2c1c(=O)[nH]c(=O)n2CCc1ccccc1)c1ccc(Cl)cc1 (stereo not given) | 109.0 | 107.0
CCc1ccc(-n2c(N3CCN(c4cccc(C)c4C)CC3)nc3ccccc3c2=O)cc1 | 108.0 | 111.0
COc1ccc(S(=O)(=O)Nc2cccc(-c3ccc(N4CCCCCC4)nn3)c2)cc1F | 111.0 | 115.0
O=C(NCc1ccco1)c1ccc(Cn2c(SCc3ccccc3)nc3cccnc32)cc1 | 109.0 | 114.0
CCNc1oc(-c2ccc(COc3ccc(Cl)cc3)o2)nc1C#N | 110.0 | 110.0
COC(=O)c1c(NC(=O)c2ccc(S(=O)(=O)N3CCC(C)CC3)cc2)sc2c1CCN(C)C2 | 104.0 | 90.0
CCc1ccc(NC(=O)CSC2=Nc3ccccc3C3=NC(CCC(=O)NCc4cccs4)C(=O)N23)cc1 (stereo not given) | 110.0 | 112.0
Cc1ccc(N2CCN(C(=O)NCc3noc4ccccc34)CC2C)cc1 (stereo not given) | 112.0 | 109.0
Cc1ccc2cccc(NC(=O)c3ccc(C#N)cc3F)c2n1 | 105.0 | 104.0
CCOC(=O)c1ccc(NS(=O)(=O)c2ccc(Br)s2)cc1 | 109.0 | 114.0
Cc1cccc(OC(=O)CSc2nnc(CNC(=O)c3ccccc3)o2)c1C | 92.0 | 89.0

Single records (already shown).
Shown for `O=C(NC1(C(F)(F)F)C(=O)Nc2c1c(=O)[nH]c(=O)n2CCc1ccccc1)c1ccc(Cl)cc1` (stereo not given) : Polio RdRp inh: 109.0; Polio RdRp inh intensity: 107.0
Shown for `Cc1ccc2cccc(NC(=O)c3ccc(C#N)cc3F)c2n1` : Polio RdRp inh: 105.0; Polio RdRp inh intensity: 104.0
Shown for `Cc1ccc(N2CCN(C(=O)NCc3noc4ccccc34)CC2C)cc1` (stereo not given) : Polio RdRp inh: 112.0; Polio RdRp inh intensity: 109.0

The list continues.
SMILES | Polio RdRp inh | Polio RdRp inh intensity
COc1ccc(Cl)cc1NC(=O)c1c(C(=O)Nc2cccc(C)c2C)sc2nc(C)cc(=O)n12 | 104.0 | 101.0
COc1ccc(OC)c(-c2noc(CSc3nnc(Cc4ccccc4)n3-c3cccc(C)c3)n2)c1 | 113.0 | 114.0
COc1ccc2c(c1)c(=O)c(C(=O)c1ccc(Cl)cc1)cn2CC(=O)Nc1ccc2c(c1)OCCO2 | 108.0 | 107.0
CCC(C(=O)Nc1ccc(F)cc1F)n1nc(-c2ccccc2)c2c(c1=O)CCCC2 (stereo not given) | 109.0 | 112.0
O=C(Nc1ccc(-c2cc(C(F)(F)F)nn2-c2ccccc2)cc1)c1cccc(F)c1 | 100.0 | 104.0
O=C(COc1ccc(Cl)cc1)Nc1ccc2nc(SCC(=O)N3CCCC3)sc2c1 | 104.0 | 111.0
COc1cc(C2Nc3ccccc3-c3nnc(SCc4ccc(C)cc4)nc3O2)cc(OC)c1O (stereo not given) | 104.0 | 108.0
COc1ccccc1NC(=O)CSC1=Nc2ccccc2C2=NC(CCC(=O)NCc3cccs3)C(=O)N12 (stereo not given) | 111.0 | 112.0
Cc1ccc(C)c(NC(=O)/C(C#N)=C/c2ccc(C(C)C)cc2)c1 | 104.0 | 107.0
CC(NC(=O)Cc1ccc(NC(=O)N2CCCCc3ccccc32)cc1)c1ccccc1 (stereo not given) | 108.0 | 112.0
COc1ccccc1NC(=O)c1c(NC(=O)Cc2ccccc2)sc2c1CCC(C(C)(C)C)C2 (stereo not given) | 104.0 | 98.0
COc1cc(C(=O)OCc2cc(=O)n3nc(C4CCCCC4)sc3n2)cc(OC)c1OC | 102.0 | 96.0
CCc1cccc(NS(=O)(=O)c2c(C)nc3sc(CC)nn3c2=O)c1 | 108.0 | 109.0
CCOc1ccc(CC(=O)Nc2ccc3c(c2)N(C)C(=O)c2ccccc2S3)cc1OCC | 105.0 | 107.0

Screening results deposited in PubChem by ICCB-Longwood Screening Facility, Harvard Medical School.

Only part of the results is shown; count on the stated rates, not on these rows.
